# Mtb bLac sens – beta-lactam sensitization of Mtb H37Rv | hit rate 0.27% among 330,000 | M. tuberculosis H37Rv growth with meropenem, percent inhibition; hits of this screen are not shown here | inhibition, % at 25 µM;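 active means about 74% or more and at least 40 points above the plate without the antibiotic, then above 30% in a dose series; inconclusive means first-round hits that could not be retested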;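 further: growth measured after seven days incubation then overnight dye step; 0% = bacteria only wells and 100% = bacteria with antibiotic; twin plates without the antibiotic show which effects depend on it; some results filed as inactive read as strong as hits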
# YopH PTP inh – blocks Yersinia enterocolitica YopH tyrosine phosphatase. hit rate 0.16% among 140,000. fluorescence Ex485/Em525. inhibition, %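 (about 10 µM by stock and volumes)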;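 active means inhibition of 50% or more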;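 further: controls were vehicle for no effect and minimum signal wells for full effect; inactives centre near -20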
# Mtb H37Rv – M. tuberculosis H37Rv growth inhibitors, H37Rv strain (AID 1626); one-dose inhibition, % at 10 µM; IC50 in µM for titrated hits; M. tuberculosis H37Rv growth inhibition; higher % means a stronger effect; hit rate 0.95% among 220,000;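 active means confirmed in a dose series; inconclusive means inhibition above 80% but not taken into the dose series; inactive means below 80% or under 30% at every dose of the series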;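 further: bacteria incubated seven days before Alamar blue readout; 0% = bacteria only wells and 100% = bacteria with antibiotic wells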
# Arbovirus inh – blocks arbovirus infection. arbovirus infection cell-based antiviral screen. hit rate 0.37% among 200,000. inhibition, % at 10 µM;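 active means inhibition from about 30%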;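 further: bluetongue infection of BSR cells; cell survival read as ATP light after 72 h; 0% = infected wells without compound and 100% = uninfected wells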
# RecA intein inh – Mtb RecA intein splicing inhibition. inhibition, %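 (about 9 µM by stock and volumes)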. P9WHJ3. cell-free RecA intein splicing, fluorescence. hit rate 0.75% among 290,000; in the data active means inhibition above about 30%; inconclusive means no clear call, values can overlap the other calls;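 further: 0% = vehicle wells and 100% = reference inhibitor control wells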
# Target sequence (P9WHJ3 whole entry, looked up): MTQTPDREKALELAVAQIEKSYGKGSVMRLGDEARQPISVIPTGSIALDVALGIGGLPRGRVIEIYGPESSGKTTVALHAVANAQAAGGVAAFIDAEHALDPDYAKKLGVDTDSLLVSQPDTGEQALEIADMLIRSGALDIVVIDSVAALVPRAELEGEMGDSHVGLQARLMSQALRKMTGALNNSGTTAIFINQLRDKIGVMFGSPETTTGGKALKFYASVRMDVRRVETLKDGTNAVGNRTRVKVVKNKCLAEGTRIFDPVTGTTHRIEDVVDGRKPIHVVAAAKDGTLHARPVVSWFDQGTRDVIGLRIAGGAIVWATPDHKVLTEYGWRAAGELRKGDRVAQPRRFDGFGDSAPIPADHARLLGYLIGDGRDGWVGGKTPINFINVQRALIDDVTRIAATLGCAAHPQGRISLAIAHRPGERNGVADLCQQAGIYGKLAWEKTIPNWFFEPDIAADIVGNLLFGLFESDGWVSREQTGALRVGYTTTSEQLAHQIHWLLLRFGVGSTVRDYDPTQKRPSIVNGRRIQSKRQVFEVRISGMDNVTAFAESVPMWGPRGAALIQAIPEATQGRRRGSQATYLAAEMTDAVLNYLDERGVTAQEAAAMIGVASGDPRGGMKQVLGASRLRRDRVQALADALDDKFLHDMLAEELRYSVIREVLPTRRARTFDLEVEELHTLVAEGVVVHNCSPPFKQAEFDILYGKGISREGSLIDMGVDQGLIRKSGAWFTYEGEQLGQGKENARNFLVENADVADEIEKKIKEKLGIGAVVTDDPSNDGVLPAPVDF
# Arbovirus inh repeat – recorded beside Arbovirus inh, whose call it bears; inhibition, %; measured here: 10K subset replicate screen; many hits read low in the repeat;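 first of two repeat runs on a subset; 0% = infected and 100% = uninfected wells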
# * marks the source's active call; other numbers are inactive results; ? = inconclusive; / = not tested or not shown. Not all compounds are listed. The share of hits here may be higher or lower than overall.
SMILES,Mtb bLac sens,YopH PTP inh,Mtb H37Rv,Arbovirus inh,RecA intein inh,others
NCC(O)CN(c1ccccc1)c1ccccc1 (stereo not drawn),0,/,1%,1,-0.6,
Cc1ccc(C2=C/C(=C\c3cccnc3)C(=O)O2)cc1,6,-23,0%,-2,/,
NC(CSC12CC3CC(CC(C3)C1)C2)C(=O)O (stereo not drawn),-1,-45,-7%,2,-0.2,
CCOC(=O)C1CCCN(C(=O)c2cn(CC(C)C)c(=O)c3cc(OC)c(OC)cc23)C1 (stereo not drawn),-2,-6,-2%,3,1.9,Arbovirus inh repeat=-4
COc1ccc(Br)cc1/C=N/NC(=O)CN1CCCCC1,-3,/,/,/,-0.4,
Cc1cccc(OCC(=O)Nc2ccc(C(=O)O)cc2NC(=O)COc2cccc(C)c2)c1,0,/,/,/,1.1,
CCn1cc(C2=NC(C)CO2)c2ccccc21 (stereo not drawn),-7,-12,5%,9,-4.0,
CCN1c2ccccc2-c2nc3ccccc3n2C1c1ccncc1 (stereo not drawn),-14,-42,2%,-1,-2.3,
O=C(c1cn(-c2ccccc2)nc1-c1ccncc1)n1nnc2ccccc21,63,-20,-7%,/,7.3,
O=C(Nc1cccc(S(=O)(=O)NC2=NCCC2)c1)C1CCC1,-6,/,-1%,-2,3.5,
CCCc1ccc(OCc2ccc(C(=O)NN)o2)c(OC)c1,8,/,/,/,6.9,
COCCNC(=O)Cn1cc2c(n1)CCCCC2,?,10,-3%,1,-0.7,Arbovirus inh repeat=-1
CC1=C/C(=C/N(C)c2ccccc2)C(=O)S1,-5,-27,-7%,-6,2.7,
COc1ccc(S(=O)(=O)Cc2ccc(C(=O)N3CCN(c4cccc(C)c4)C(C)C3)o2)cc1 (stereo not drawn),1,/,-2%,-16,3.1,
CSc1cccc(NC(=O)C(C)NS(=O)(=O)c2ccc(F)cc2)c1 (stereo not drawn),-3,-7,2%,2,2.9,
CCCn1c(SCC(=O)NC(=O)Nc2ccc(C)cc2C)n[nH]c1=O,14,-42,3%,-9,-0.4,
O=S(=O)(/C=C/c1ccccc1)Nc1ccc2c(c1)OCO2,7,-21,12%,0,2.4,
COc1cc(/C=N/N2C(=O)c3ccccc3C2=O)ccc1O,5,13,1%,-7,-3.9,
O=C(NCc1ccccc1)c1ccc(Oc2ccc(C(=O)NCc3ccccc3)cc2)cc1,0,-8,-1%,-4,2.0,
O=C(COC(=O)/C=C/c1ccccc1Cl)NCCNC(=O)COC(=O)/C=C/c1ccccc1Cl,-2,/,/,/,0.7,
COc1ccc(OC)c(C2=NOC(C(=O)N3CCN(c4ccccc4)CC3)C2)c1 (stereo not drawn),0,-42,6%,9,0.5,
CCOc1ccc(CN(C)CCc2ccccn2)cc1,-1,/,-2%,3,-3.5,
Cn1cc(CN2CCC(n3nccc3NC(=O)CCCc3ccccc3)CC2)cn1,-4,/,/,/,0.2,
CCC(C)c1ccccc1N1CC(C(=O)N2CCN(S(=O)(=O)c3ccc(F)cc3)CC2)CC1=O (stereo not drawn),2,/,/,/,1.7,
Clc1ccc(-c2nnnn2-c2ccc(Cl)cc2)cc1,-2,/,0%,/,1.6,

# Three structures from above, ordered by heavy-atom count, falling:
SMILES,Mtb bLac sens,YopH PTP inh,Mtb H37Rv,Arbovirus inh,RecA intein inh,others
O=C(NCc1ccccc1)c1ccc(Oc2ccc(C(=O)NCc3ccccc3)cc2)cc1,0,-8,-1%,-4,2.0,
COc1cc(/C=N/N2C(=O)c3ccccc3C2=O)ccc1O,5,13,1%,-7,-3.9,
NCC(O)CN(c1ccccc1)c1ccccc1 (stereo not drawn),0,/,1%,1,-0.6,

# Following part:
SMILES,Mtb bLac sens,YopH PTP inh,Mtb H37Rv,Arbovirus inh,RecA intein inh,others
CC1Cc2ccccc2N1C(=O)CSc1nc2c(c(=O)n(C)c(=O)n2C)n1Cc1ccccc1 (stereo not drawn),18,-30,51%,-7,4.0,
Cc1cccc(C)c1NC(=O)C1CCCN1S(=O)(=O)c1ccc2c(c1)n(C)c(=O)c(=O)n2C (stereo not drawn),1,/,/,/,11,
Cc1cccc(N2CCN(S(=O)(=O)c3ccc4c(c3)C(C)(C)C(=O)N4C)CC2)c1C,-1,/,/,/,8.0,
c1ccc2c(Cn3nnc4ccccc43)cccc2c1,3,34,-3%,-5,6.8,
O=S(=O)(c1cc(Cl)cc(Cl)c1O)N1CCC2(CC1)OCCO2,-21,/,/,/,-1.2,
Cc1nc(SCC(=O)Nc2cccnc2Cl)nc(C)c1C,-17,/,1%,-2,-1.8,
Cc1ccc(S(=O)(=O)N(C)C)cc1NC(=O)CSc1nncs1,-2,/,/,/,-0.4,
COCc1c(CN)cnc(C)c1N,4,-4,-2%,16,-3.9,
Nc1nc(Nc2cccc(Cl)c2)nc(NCc2ccco2)c1[N+](=O)[O-],93,/,30µM*,/,1.7,
CC(NC(=O)/C=C/c1ccco1)c1nc2ccccc2n1Cc1c(Cl)cccc1Cl (stereo not drawn),3,-29,/,-11,6.4,
COc1ccccc1CN1CCNC(=O)C1CC(=O)N(C)Cc1nc(C)cs1 (stereo not drawn),-7,/,/,/,-0.8,
CCOC(=O)CNC(=O)CSc1nnc(-c2ccccc2)n1Cc1ccco1,-3,2,-8%,14,/,
CCOC(=O)CN(C(=O)c1ccccc1)c1ccccc1C,-2,11,1%,1,-1.7,Arbovirus inh repeat=-3
CCC(Cc1ccccc1)NC(=O)C1CCN(S(=O)(=O)c2c(C)noc2C)CC1 (stereo not drawn),10,-10,3%,9,0.0,
Fc1ccc(CNc2nc3ccccc3n3nnnc23)cc1,-5,-16,-7%,-17,-7.5,
O=C(N/C(=C\c1cccnc1)C(=O)N1CCCCC1)c1cccc(Br)c1,-4,/,/,/,1.5,
O=C(O)c1ccc2c(=O)n(-c3ccc(F)cc3)c(=S)[nH]c2c1,-12,/,-8%,/,/,
CCCc1nnc(NC(=O)c2ccc([N+](=O)[O-])cc2)s1,1,-22,9%,12,2.4,
Cc1cc(C)nc(NC(=O)c2ccccc2O)n1,-3,/,/,/,-3.0,
Cc1cc(C(=O)OCC(=O)N2CC(C)OC(C)C2)ccc1[N+](=O)[O-] (stereo not drawn),-1,/,-8%,21,-1.2,
Cc1cccc(C(C)Nc2ccc([N+](=O)[O-])cn2)c1 (stereo not drawn),1,-34,5%,-2,4.6,
O=C(COc1ccc(Cl)cc1Cl)N1CCCC1,5,3,2%,9,0.7,
Cc1c(N)ccc(-n2nc3ccccc3n2)c1C,4,/,/,/,0.5,
O=C(NCCF)[C@H]1C[C@@H]1[C@H](NP(=O)(c1ccccc1)c1ccccc1)c1ccccc1,-6,-11,-13%,9,-0.2,
CCCOC(=O)c1ccc(Cl)c(NC(=O)c2cccnc2)c1,-9,/,-6%,-1,1.0,

# Additional results
SMILES,Mtb bLac sens,YopH PTP inh,Mtb H37Rv,Arbovirus inh,RecA intein inh,others
Cc1ccc(N2C(=O)CS(=O)(=O)CC2=O)cc1,-3,/,-11%,2,1.2,
COc1ccc(-n2c(-c3ccccc3[N+](=O)[O-])nc3ccccc3c2=O)cc1,-1,/,/,/,-0.9,
CC1CC1c1ccc(/C=C(\C#N)C(=O)Nc2ccccc2Cl)o1 (stereo not drawn),43,-13,/,17,-6.6,
COc1ccccc1NS(=O)(=O)c1ccc(NC(=O)N2CCCCC2)cc1,6,/,/,/,-2.7,
Cc1ccccc1N(C(=O)CNC(=O)c1ccco1)C(C(=O)NC1CCCCC1)c1ccncc1 (stereo not drawn),4,/,/,/,-5.4,
CCOC(=O)C1(c2nc(N)cs2)COC(=O)C1 (stereo not drawn),-11,-26,2%,1,-3.0,
CCCCOc1ccc(NC(=O)C(=O)NCCCn2ccnc2)cc1,0,-16,-1%,-14,0.4,
COC(=O)c1ccc(NC(=O)CN2CCN(c3cccc(Cl)c3)CC2)cc1,89,-38,9%,2,6.5,
CC(C)COc1cccc(C(=O)NC(=S)Nc2cccc(NC(=O)c3ccccc3Cl)c2)c1,-3,13,14%,5,-0.2,
CCc1nn(C(C)C(=O)NCCc2ccc(OC)c(OC)c2)c(=O)c2cc3occc3n12 (stereo not drawn),-4,-31,-10%,1,0.0,
CCCCn1c(C)cc(/C=C(\C#N)C(=O)O)c1C,3,-28,-2%,1,0.9,
COc1cc(N=Nc2cccc(S(N)(=O)=O)c2)c2ccccc2c1N,20,/,13%,/,45*,
Cc1cc(C)nc(N2CCC(C(=O)NCc3cccs3)CC2)n1,15,-6,-14%,-6,1.0,
O=C(c1cc(S(=O)(=O)N2CCOCC2)c(Cl)cc1Cl)N1CCCCC1,3,-32,-1%,-3,3.0,
CC1Cc2cc(S(=O)(=O)N3CCN(c4ccccc4F)CC3)ccc2N1C(=O)C1CC1 (stereo not drawn),2,/,/,/,5.2,
COC(=O)c1ccc(CN(C(=O)N2CCN(C)CC2)S(=O)(=O)c2ccc(C)cc2)cc1,-14,/,/,/,-1.6,
CN(C)c1ccc(/C=N/NC(=O)CCc2nc3ccccc3[nH]2)cc1,-5,/,-11%,/,-0.6,
O=C(Nc1cc(C(F)(F)F)cc(C(F)(F)F)c1)Nc1cnn(-c2ccc([N+](=O)[O-])cc2)c1C(F)(F)F,100,/,0.68µM*,/,6.7,
O=C(Nc1ccc(Cc2ccc(NC(=O)C3CC3)cc2)cc1)C1CC1,0,/,8%,-6,-0.9,
CSc1n[nH]c(/N=C/c2oc(O)c3ccccc23)n1,3,/,-1%,11,1.4,
CC(=O)Nc1cc(S(=O)(=O)Nc2cccc(C)c2)c(C)cc1C,2,-22,-5%,-2,0.9,
CSc1nnc(Cc2cc(=O)[nH]c(=O)[nH]2)n1-c1cc(C)ccc1C,-3,-40,-2%,2,/,
O=C(CN1C(=O)CCC1=O)Nc1ccc(Cc2ccc(NC(=O)CN3C(=O)CCC3=O)cc2)cc1,-2,/,4%,15,0.4,
Cc1nc2ccccc2c(=O)n1NC(=O)c1cncc(Br)c1,-3,/,-4%,0,-3.5,
Oc1ccc(-c2nccc(-c3ccc(Br)cc3)n2)cc1,95,/,/,/,2.9,

# The closing 4 records of the section before lead into the next:
SMILES,Mtb bLac sens,YopH PTP inh,Mtb H37Rv,Arbovirus inh,RecA intein inh,others
CSc1nnc(Cc2cc(=O)[nH]c(=O)[nH]2)n1-c1cc(C)ccc1C,-3,-40,-2%,2,/,
O=C(CN1C(=O)CCC1=O)Nc1ccc(Cc2ccc(NC(=O)CN3C(=O)CCC3=O)cc2)cc1,-2,/,4%,15,0.4,
Cc1nc2ccccc2c(=O)n1NC(=O)c1cncc(Br)c1,-3,/,-4%,0,-3.5,
Oc1ccc(-c2nccc(-c3ccc(Br)cc3)n2)cc1,95,/,/,/,2.9,
O=C(O)c1cnc(-c2ccccc2)nc1C(F)(F)F,-9,/,2%,1,2.1,
COc1ccc(CCN(C)C(=O)CCCN2C(=O)c3cccc4cccc(c34)C2=O)cc1OC,-2,/,/,/,2.1,
CC(C)Oc1ccc(/C=C/C(=O)NCC2COc3ccccc3O2)cc1 (stereo not drawn),27,/,51%,/,3.6,
Cc1ccc(C(=O)NCc2ccccn2)o1,-6,-29,-3%,3,-1.3,
CCCc1cc(=O)oc2cc(OCC(=O)NCCCN3CCOCC3)ccc12,10,/,/,/,-0.6,
CCOC(=O)N1CCN(C(=O)CCSc2ccc(C)cc2)CC1,-4,-7,-7%,4,0.6,
O=C(COC(=O)c1ccccc1Br)Nc1ccccc1F,94,/,>100µM*,-1,-0.1,
CCC(=O)N1CCN(c2ccc(NC(=S)NC(=O)c3cccc([N+](=O)[O-])c3)cc2)CC1,29,-31,-4%,-2,0.4,
Cc1ccc(NC(=S)NCCc2ccc(S(N)(=O)=O)cc2)cc1C,0,-21,9%,8,-0.4,
CC1(C)CC(NC(=O)C23CCC(C)(C2Br)C3(C)C)CC(C)(C)N1 (stereo not drawn),0,/,-7%,/,0.0,
CCOc1ccc(-n2c(C)cc(/C=N/N(C)C)c2C)cc1,91,/,87%,5,2.3,
CC1Sc2ccc(S(=O)(=O)CCC(=O)NCc3ccccc3)cc2NC1=O (stereo not drawn),-1,/,/,/,0.2,
O=C(CCNS(=O)(=O)c1ccc(Cl)cc1)NCc1cccnc1,-4,-23,-8%,5,-1.0,
CCOc1ccc(CC2S/C(=N/N=C/c3ccco3)NC2=O)cc1 (stereo not drawn),6,/,5%,-7,-0.3,
Cn1c(SCc2ccccn2)nnc1-c1cnccn1,2,-37,-1%,10,-2.7,
CC1CCCCN1C(=O)CSc1nc(-c2ccccc2)cc(=O)[nH]1 (stereo not drawn),-7,-51,8%,13,-0.5,
CC(C(=O)NN=C(c1ccccc1)c1ccccc1)N1CCOCC1 (stereo not drawn),-9,/,6%,-1,0.3,

# Of the compounds above, 2 contain a CF3 group:
SMILES,Mtb bLac sens,YopH PTP inh,Mtb H37Rv,Arbovirus inh,RecA intein inh,others
O=C(Nc1cc(C(F)(F)F)cc(C(F)(F)F)c1)Nc1cnn(-c2ccc([N+](=O)[O-])cc2)c1C(F)(F)F,100,/,0.68µM*,/,6.7,
O=C(O)c1cnc(-c2ccccc2)nc1C(F)(F)F,-9,/,2%,1,2.1,
